Bioassay records (PubChem BioAssay)
KCNQ2 pot: enhances the rat KCNQ2 potassium channel; B-score at 10 µM; 310,000 tested, 0.54% active; CHO-K1 KCNQ2, FluxOR thallium flux fluorescence; hits give high values;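 active = fluorescence ratio B-score at least 3 SD of library B-scores, with initial fluorescence B-score within 3 SD, cut at about 5.3 in these data; same plate scores as AID 2156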;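 note: B-score of peak minus minimum over baseline fluorescence ratio after K+ and Tl+ stimulus; positive B-score means potentiation of KCNQ2 with more thallium influx and brighter signal; only the inactives scoring about 0 or higher are listed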
Target sequence (O88943 whole entry, looked up): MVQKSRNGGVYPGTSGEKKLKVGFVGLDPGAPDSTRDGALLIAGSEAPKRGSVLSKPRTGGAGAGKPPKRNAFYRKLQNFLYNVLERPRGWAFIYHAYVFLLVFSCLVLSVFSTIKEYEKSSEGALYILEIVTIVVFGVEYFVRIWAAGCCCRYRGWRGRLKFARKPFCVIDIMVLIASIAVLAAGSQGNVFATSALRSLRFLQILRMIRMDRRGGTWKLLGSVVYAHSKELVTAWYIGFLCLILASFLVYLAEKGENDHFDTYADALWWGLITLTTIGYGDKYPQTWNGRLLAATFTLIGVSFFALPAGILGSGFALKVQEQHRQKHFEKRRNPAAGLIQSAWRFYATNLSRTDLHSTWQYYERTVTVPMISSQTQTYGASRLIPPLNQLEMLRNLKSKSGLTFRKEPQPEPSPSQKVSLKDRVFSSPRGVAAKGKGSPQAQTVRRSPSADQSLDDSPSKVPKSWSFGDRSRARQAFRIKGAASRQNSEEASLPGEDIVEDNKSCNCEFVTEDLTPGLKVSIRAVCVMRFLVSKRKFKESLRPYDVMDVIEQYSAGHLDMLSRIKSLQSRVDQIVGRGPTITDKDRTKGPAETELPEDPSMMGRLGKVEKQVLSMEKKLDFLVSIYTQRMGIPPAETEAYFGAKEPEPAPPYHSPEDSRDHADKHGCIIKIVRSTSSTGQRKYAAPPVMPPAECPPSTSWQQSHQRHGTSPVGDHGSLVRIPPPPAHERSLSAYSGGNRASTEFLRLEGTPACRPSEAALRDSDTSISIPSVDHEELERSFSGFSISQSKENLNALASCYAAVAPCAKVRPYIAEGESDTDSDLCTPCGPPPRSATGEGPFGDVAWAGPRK
KCNQ2 pot baseline: second read-out of KCNQ2 pot, no call of its own (marks repeat the call); B-score; compound at 10 µM; measured here: initial fluorescence intensity artifact check;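 brightness before thallium and not channel activity; 0 = typical well and far values either way flag optical interference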
The depositor's hits bear a star. Not all compounds are listed (hit frequency here may not be typical).

entry	KCNQ2 pot	KCNQ2 pot baseline	molecule
1	1.3	0.01	CC1CN(C(=O)CN2C(=O)c3ccccc3C2=O)CC(C)O1 (stereo not given)
2	0.86	1.9	CN(Cc1nc(-c2cnccn2)no1)Cc1cccc2ccccc12
3	0.72	0.2	CC(C)C(=O)N1CCN(CCN=CC2=C(O)CC(c3ccco3)CC2=O)CC1 (stereo not given)
4	2.3	-2.7	CCN1C(=O)c2cccc3c(S(=O)(=O)NCc4ccccn4)ccc1c23
5	0.59	-0.06	COC(=O)C(Cc1ccccc1)P(=O)(c1ccccc1)c1ccccc1 (stereo not given)
6	0.67	-0.91	CC(C1CC2CCC1C2)n1c(-c2ccco2)n[nH]c1=S (stereo not given)
7	0.01	1.5	COc1cc(S(=O)(=O)NCc2ccncc2)c(OC)cc1C
8	0.24	1.2	O=C(O)c1cccc(N2CCCC2=O)c1
9	0.28	-0.06	Cc1cc(=O)[nH]c(SCC(=O)Nc2ccc(S(=O)(=O)N3CCOCC3)cc2)n1
10	0.01	1.5	C=CCn1c(SCC(=O)Nc2nnc(C)s2)nnc1C1CC1
11	1.2	-0.69	Cc1ccc(-n2c(C)c(C)c3c(NCCO)ncnc32)cc1
12	0.88	0.99	Cc1cc(=O)[nH]c(SCC(=O)C23CC4CC(CC(C4)C2)C3)c1C#N
13	1.5	-0.46	CCNC(=S)N1CCC(c2nc3cc(C)c(C)cc3[nH]2)CC1
14	0.42	0.44	Cc1cc(SC2CCOC2=O)nc2ccccc12 (stereo not given)
15	1.5	0	CCOc1ccc(NC(=O)c2cccc(OC(=S)N3CCC(C)CC3)c2)cc1

Five records drawn at random from those above, as already listed:
entry	KCNQ2 pot	KCNQ2 pot baseline	molecule
12	0.88	0.99	Cc1cc(=O)[nH]c(SCC(=O)C23CC4CC(CC(C4)C2)C3)c1C#N
3	0.72	0.2	CC(C)C(=O)N1CCN(CCN=CC2=C(O)CC(c3ccco3)CC2=O)CC1 (stereo not given)
11	1.2	-0.69	Cc1ccc(-n2c(C)c(C)c3c(NCCO)ncnc32)cc1
8	0.24	1.2	O=C(O)c1cccc(N2CCCC2=O)c1
9	0.28	-0.06	Cc1cc(=O)[nH]c(SCC(=O)Nc2ccc(S(=O)(=O)N3CCOCC3)cc2)n1

(cont.)
entry	KCNQ2 pot	KCNQ2 pot baseline	molecule
16	1.9	0.38	Oc1ccc(-c2onc(C(F)(F)F)c2-c2cscn2)c(O)c1
17	0.68	-0.9	Cc1ccc(/C=C(\C#N)C(=O)NCc2ccco2)o1
18	0.26	0.01	COc1ccc(-c2cc(C(F)F)n3ncc(C(=O)N4CCCc5ccccc54)c3n2)cc1
19	1.9	1.4	O=C1c2ccccc2C(=O)N1c1ncccn1
20	2.3	0.89	COc1cccc(OC)c1OCCOCCN1CCN(C)CC1
21	3.3	-0.33	O=C(COC(=O)CCCNC(=O)c1ccc(Cl)cc1)Nc1ccc(Br)cc1
22	0.32	-0.06	COc1ccc(N(CC(=O)N2CCN(c3cccc(C)c3C)CC2)S(=O)(=O)c2c(C)noc2C)cc1
23	1.1	-1.2	CCCCNc1nc2ccccc2n1CC(=O)Nc1ccc2c(c1)OCCO2
24	1.4	-0.04	COc1nc(Nc2ccc(-c3nc4ccccc4o3)cc2)nc(N2CCOCC2)n1
25	0.11	0.72	CCC(=O)Oc1ccc(-c2nc(-c3cccnc3)no2)cc1
26	0.1	-0.51	COCCCNC(=O)CNC(=S)N(Cc1ccc(F)cc1)C1CCCCC1
27	0.2	-2.5	CCc1nnc(NC(=O)c2ccc(S(=O)(=O)N(CCOC)CCOC)cc2)s1
28	0.3	1.1	Cc1ccc2oc(-c3cccc(NC(=O)c4ccccn4)c3)nc2c1
29	1.8	-0.6	Cc1cc(C)nc(Nc2ncn[nH]2)n1
30	0.22	-2.9	COc1ccc(C(=O)n2nc(-c3ccccc3)nc2N)cc1OC
31	0.4	-0.89	COc1ccc(NC(=O)COc2ccc3c(c2)CCC3)cc1
32	1.1	-1.4	CCCCn1c(N)c(N(CCOC)C(=O)c2ccc(-c3cccc(C(F)(F)F)c3)o2)c(=O)[nH]c1=O
33	1.3	-0.2	COc1cccc(NC(=O)c2cnc[nH]2)c1
34	3.5	1.2	COc1ccc(-c2nc3ncccn3c2Br)cc1
35	1.1	0.74	CN(C(=O)c1ccc(S(=O)(=O)N2CCCCC2)cc1)C1CCS(=O)(=O)C1 (stereo not given)
36	0.32	-0.34	COc1ccc(S(=O)(=O)Nc2ccc(Nc3ccccc3)cc2)cc1
37	1.4	0.3	COc1ccc(S(=O)(=O)Nc2ccc(C)cc2)cc1OC
38	1.4	0.65	CC1CCC(NC(=O)COC(=O)CCC(=O)c2ccc(Cl)s2)CC1 (stereo not given)
39	0.78	-1.1	CCOP(=O)(c1ccc(N(C)C)cc1)C(O)c1ccc(OC)cc1 (stereo not given)
40	0.95	0	Cn1c(=O)[nH]c(=O)c2c1nc(Br)n2C/C=N/Nc1ccccc1
41	0.96	-0.52	CCOC(=O)CCCCC(=O)c1[nH]c(=O)[nH]c1C[n+]1ccc(C)cc1
42	0.75	-0.29	Cc1cccc(NC2=NC(C)(C)N=C(N)N2)c1C
43	0.13	2.1	CN1CCN(C(=O)CC2C(=O)NCCN2Cc2ccc(-c3ccccc3)cc2)CC1 (stereo not given)
44	0.53	-2.1	COc1cccc(NC(=O)c2ccn(C)n2)c1
45	1.1	0.01	O=C1NC(=S)N/C1=C/c1ccc2ccccc2c1
46	1.1	-2.2	O=c1c([N+](=O)[O-])cc(C(F)(F)F)cn1Cc1cccc(Cl)c1
47	0.01	-1.4	NC(=O)c1nsc(C(=O)N(Cc2ccc(F)cc2)C(C(=O)NCC2CCCO2)c2ccc(F)cc2)c1N (stereo not given)
48	0.45	0.73	Cc1c(C)n(Cc2ccc(Cl)cc2)c2ccc(C(=O)NCCCN3CCOCC3)cc12
49	0.33	-4.6	Cc1ccc(NC(=S)N(CCCN2CCOCC2)Cc2ccccn2)cc1Cl
50	1.8	0.12	O=C(Nc1nnc(C2CC2)s1)c1ccc(S(=O)(=O)c2ccccc2)cc1
51	0.25	-1.5	O=c1c2ccccc2c(C=Nc2cccc(O)c2)c(O)n1-c1ccc2c(c1)OCO2
52	1.6	0.89	C=CCn1c(-c2oc3nc(-c4ccccc4)cc(-c4ccccc4)c3c2N)n[nH]c1=S
53	0.37	-1.4	CCc1ccccc1NC(=O)NCc1cccnc1
54	2.2	0.15	COc1ccc(N=C2SCC(c3ccccc3)=NN2C)cc1
55	0.86	-0.44	CC1=C(C#N)C2C(/C1=N/O)C2(C)C (stereo not given)
56	0.1	0.01	CCCCCCn1c(=O)[nH]c2c(c1=O)CCC2
57	3.2	1.4	COc1ccc(/C(N)=N/OC(=O)Cc2cccs2)cc1OC
58	1.5	-1.2	O=C(Nc1ccccc1)c1ccccc1C(=O)N1CCCCC1
59	0.08	-1.3	CCOc1ccc(C2OC34CCCCC3C(C#N)(C#N)C2(C#N)C(=N)O4)cc1OC (stereo not given)
60	0.58	0.26	O=C(Cc1csc(N2CCOCC2)n1)N/N=C/c1cccc(O)c1
61	2.3	-0.23	O=C(NCc1cc([N+](=O)[O-])ccc1O)c1cccnc1Sc1ccccc1
62	1.1	-0.04	Fc1ccccc1-c1nnc2ccc3ccccc3n12
63	0.28	-0.67	CCOC(=O)C1CCCN(C(=O)c2ccc(OC)c([N+](=O)[O-])c2)C1 (stereo not given)
64	0.48	0.93	Brc1cccc(OCCN2CCOCC2)c1
65	1.5	0.11	O=C(Cn1cc(C(F)(F)F)ccc1=O)N/N=C/c1ccccc1O
66	1.3	-0.31	C#CCNC(=O)C1=C[C@@H](c2coc3ccccc3c2=O)C[C@@H](OCCCCO)O1
67	0.68	0.06	NC(=O)c1cnn2c1NC(c1ccc(F)cc1)CC2C(F)(F)F (stereo not given)
68	0.43	2.2	COc1cccc(CNC(=O)CCS(=O)(=O)c2ccc3c(c2)NC(=O)C(C)S3)c1 (stereo not given)
69	0.92	0.17	O=C(c1ccc(Cl)cc1)c1cnc(-c2ccc(Cl)cc2)s1
70	1.1	1.2	CC1(C(=O)O)CCC(C(=O)Nc2ccc3ccccc3c2)C1(C)C (stereo not given)
71	0.39	1.3	CSCC[C@H](Nc1ncnc2sc(C)c(C)c12)C(=O)O
72	0.02	0.89	COc1ccc2sc(N(CCCN(C)C)C(=O)c3ccc(S(=O)(=O)N(C)C4CCCCC4)cc3)nc2c1
73	0.09	0.59	O=C(CSc1ccc(-c2cccc([N+](=O)[O-])c2)nn1)N1CCCC1
74	2.5	-2.4	CC(C(=O)NCC1CCCCC1)N1CCN(S(=O)(=O)/C=C/c2ccccc2)CC1 (stereo not given)
75	0.54	0	CC(=O)Nc1ccc(S(=O)(=O)Nc2nc3ccccc3nc2N2CCCCCC2)cc1

3 compounds out of the list above, ordered by their value in KCNQ2 pot, high to low.
nr	molecule	KCNQ2 pot	KCNQ2 pot baseline
61	O=C(NCc1cc([N+](=O)[O-])ccc1O)c1cccnc1Sc1ccccc1	2.3	-0.23
75	CC(=O)Nc1ccc(S(=O)(=O)Nc2nc3ccccc3nc2N2CCCCCC2)cc1	0.54	0
72	COc1ccc2sc(N(CCCN(C)C)C(=O)c3ccc(S(=O)(=O)N(C)C4CCCCC4)cc3)nc2c1	0.02	0.89

The list goes on.
entry	KCNQ2 pot	KCNQ2 pot baseline	molecule
76	1.4	1.6	O=C(NCCc1ccccc1)c1ccc(CS(=O)(=O)c2ccc(Br)cc2)o1
77	0.87	0.03	CCOC(=O)c1cnn(-c2ncnc3sc(CC)cc23)c1N
78	0.69	-0.76	O=C(CSc1nnc(NC(=O)CN2CCOCC2)s1)Nc1ccccc1
79	0.53	0.75	OC(C#CCN1CCCCC1)(c1ccccc1)c1ccccc1
80	1.6	-0.28	S=c1[nH]nc(COc2ccccc2)n1/N=C/c1ccccc1Cl
81	0.12	3.4	Cc1cc(C)c(NC(=O)Cn2nnc(C(=O)NCc3ccco3)c2N)c(C)c1
82	0.02	-0.99	CCOc1ccc(/C=N/n2cnnc2)cc1
83	1.4	-0.61	Cc1c(C(=O)NCc2cccs2)oc2ccc(Br)cc12
84	2	-1.6	COC(=O)Cn1c(=O)c2c(nc3n2CCCN3CCc2ccccc2)n(C)c1=O
85	0.08	1.6	Cc1ccc(Cl)cc1N1CCN(CC(=O)Nc2ccc3[nH]c(=O)[nH]c3c2)CC1
86	7.8*	1*	O=C(Nc1ccccc1)Nc1ncc([N+](=O)[O-])s1
87	0.2	-1.5	c1cc2c3c(cccc3c1)C(N1CCCCCC1)=N2
88	1.1	-0.62	CCOC(=O)CSc1nc2sc3c(c2c(=O)n1CC)CC(C)(C)OC3
89	0.26	-0.25	COC(=O)CCCC1=CC2=C(c3ccccc3)C(=O)C(C)(OC(=O)C3CCCC3)C(=O)C2=CN1C1CCCC1 (stereo not given)
90	1.2	-0.31	CN(C)c1ccc(NC(=O)Nc2csc3ccccc23)cc1

Values in list order from the entries so far:
Entries 81 to 86 in KCNQ2 pot, in turn: 0.12, 0.02, 1.4, 2, 0.08, 7.8*

Taken from above.
KCNQ2 pot result of no. 82 stands at 0.02
KCNQ2 pot result of no. 76 stands at 1.4
KCNQ2 pot baseline result of no. 85 stands at 1.6

(further entries)
entry	KCNQ2 pot	KCNQ2 pot baseline	molecule
91	0.07	1	CCOC(=O)CSc1nnc(CNC(=O)Cc2ccccc2)n1C
92	2.7	0.13	COc1ccc(C(O)c2nc3ccccc3n2C)cc1OC (stereo not given)
93	0.5	1.8	FC(F)(F)c1cccc(CN2CCN(c3ncccn3)CC2)c1
94	0.06	-0.02	O=C(CCN1C(=O)/C(=C\c2ccc(F)cc2)SC1=S)Nc1ccc(O)cc1
95	2	-1	COc1ccc(COC(=O)C2=C(C)NC(=O)NC2c2ccc(O)c(OC)c2)cc1 (stereo not given)
96	1	1.7	Cc1cc(C)c(C)c(S(=O)(=O)NCCCN2CCCC2=O)c1C
97	1.1	0.94	CCn1c(=N)n(CC(=O)C23CC4CC(CC(C4)C2)C3)c2ccccc21
98	0.25	-0.34	Nc1ccc(C(CC(=O)O)n2cccc2)cc1 (stereo not given)
99	0.76	-2.3	Cc1cc(C)nc(NC(=O)c2cc3ccccc3o2)n1
100	0.8	-0.69	N#CC1=C(N)Oc2n[nH]c(-c3ccccc3)c2C1c1ccsc1 (stereo not given)
101	0.08	-0.64	O=C(Nc1ccccc1)Nc1ccc2ccccc2n1
102	2	-1.5	CCCSc1nc2c(cnn2-c2ccc(Cl)cc2)c(=O)[nH]1
